D2 antag: antagonists of human D2 dopamine receptor. P14416. HEK293 TREx D2 cells, calcium flux, dopamine EC80. inhibition, % at 10 µM. 2% of 340,000 active. AID 485344; in the data active = inhibition above about 30%; note: 0% is about no effect
Target sequence (P14416 whole entry, looked up): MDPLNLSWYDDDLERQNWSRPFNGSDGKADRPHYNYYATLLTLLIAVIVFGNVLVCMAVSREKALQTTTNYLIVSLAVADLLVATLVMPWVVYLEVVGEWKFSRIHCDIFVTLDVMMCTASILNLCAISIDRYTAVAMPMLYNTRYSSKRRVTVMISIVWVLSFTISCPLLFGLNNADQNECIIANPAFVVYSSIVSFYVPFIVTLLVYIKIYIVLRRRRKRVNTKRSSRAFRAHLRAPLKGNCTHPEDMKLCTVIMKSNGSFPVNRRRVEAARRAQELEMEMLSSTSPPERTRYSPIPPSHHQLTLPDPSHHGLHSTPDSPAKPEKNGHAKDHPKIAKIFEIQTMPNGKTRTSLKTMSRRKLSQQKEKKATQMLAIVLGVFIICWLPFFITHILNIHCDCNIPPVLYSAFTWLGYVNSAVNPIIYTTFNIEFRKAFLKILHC
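Tetracycline-induced HEK293 T-REx cells expressing D2 force-coupled to calcium signalling were dye-loaded, exposed to compound for 180 s, then challenged with an EC80 of dopamine; calcium flux was followed kinetically for a further 180 s.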
D2 potentiator: D2 dopamine receptor (human) potentiation; potentiation, % at 10 µM; 0.34% of 340,000 active; P14416; HEK293 T-REx D2, calcium flux, EC20 dopamine potentiation;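 active = potentiation over 3 SD above the plate norm, cut at about 30% in these data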; note: 0% is about no effect
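Cells plated with tetracycline inducer and held overnight at 30 C; calcium dye loaded 30–90 min at room temperature; baseline taken, compound added and read 180 s; EC20 dopamine then added and read 180 s.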
RXFP1 antagonist: blocks the human relaxin receptor RXFP1; HEK293-RXFP1, relaxin-stimulated cAMP HTRF, 30 min; stronger effect = lower value; activity change, negative = inhibition, % at 57.5 µM; 0.59% of 350,000 active;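 active = activity change of -60% or lower, but not beyond a set lower limit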; note: % is set by controls: 0 for no effect and ±100 for the full control effect
D2 ag: activates the human D2 dopamine receptor. AID 485358. HEK293 T-REx D2 cells, calcium flux agonist mode. 0.53% of 340,000 active. activation, % at 2 µM;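 active = activation over 3 SD above normal in the single-dose calcium agonist read, cut at about 30% in these data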; note: 0% is about no effect
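HEK293 Trex D2 cells, tetracycline-induced, o/n 30 C 5% CO2; no-wash Ca dye, RT 30–90 min; 10-cycle baseline, 23 nl cpd added, kinetic Ca read 180 s; agonist hits = positive Ca response.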
RXFP1 ag: activates the human relaxin receptor RXFP1. Q9HBX9. HEK293T-RXFP1 cAMP TR-FRET, 30 min; response scale: percent of porcine relaxin response, buffer zero. Potency, µM (highest dose often 57.5 µM), inactives show at the highest dose activation, hits mostly activators. 0.3% of 370,000 active; active = well fitted activation curve with a large enough effect; note: potency is the fitted concentration of half-maximal effect; % is set by controls: 0 for no effect and ±100 for the full control effect; nearly all actives have a fitted effect of over 60% in size; many of its hits are not listed in these tables
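HEK293T cells stably expressing RXFP1 were pretreated with the PDE4 inhibitor Ro 20174, exposed to compounds for 30 min at 37C, lysed, and cAMP was read by TR-FRET. Data normalized to buffer (basal) and 29 nM porcine relaxin (100%).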
* = called active by the depositor; nt = not tested or not shown. The list is partial; the hit share may differ from the screen's.

1) CC1CCC2[C@@H](C)C(=O)OC3O[C@]4(C)CCC1C32OO4 (stereo not given in full)
2) Clc1ccc(COC(Cn2ccnc2)c2ccc(Cl)cc2Cl)c(Cl)c1 (stereo not given)
3) C=CCn1c(O)c(C(C)=O)c(=O)[nH]c1=O (tested in a mixture with another compound)
4) C1CC2OC2CC1C1CO1 (stereo not given)
5) ClC1=C(Cl)C2(Cl)C3C(Cl)C=CC3C1(Cl)C2(Cl)Cl (stereo not given)
6) C[C@]12CCC(=O)C(O)=C1CC[C@@H]1[C@@H]2CC[C@]2(C)C(=O)CC[C@@H]12

Compound | 1 | 2 | 3 | 4 | 5 | 6
D2 antag | nt | -22 | -4 | -9 | 2 | 25
D2 potentiator | nt | -9 | -4 | 3 | 22 | -3
RXFP1 antagonist | -6 | nt | 7 | nt | nt | -15
D2 ag | nt | -3.1 | 0.1 | 0.5 | -0.2 | 1.4
RXFP1 ag | nt | -1.9% | 4.6% | -0.8% | 8.9% | 0.3%

7) ClCC(Br)CBr (stereo not given)
8) COc1ccc(C(=O)N2CCCC2=O)cc1
9) C[N+](C)(C)CC(=O)O
10) N#CC1=C(N)Oc2cc(O)ccc2C1c1ccc2c(c1)OCO2 (stereo not given)
11) CCOC(=O)c1cncn1C(C)c1ccccc1 (stereo not given)
12) C[C@]12CCC3C(CC[C@H]4C[C@@H](O)CC[C@]34C)[C@H]1C=CC2=O (stereo not given in full)

Compound | 7 | 8 | 9 | 10 | 11 | 12
D2 antag | nt | 40* | 12 | -17 | 35* | nt
D2 potentiator | nt | 5 | -3 | 7 | -18 | nt
RXFP1 antagonist | nt | 19 | 7 | 9 | -6 | -21
D2 ag | nt | 1.4 | -1.0 | -1.3 | 11 | nt
RXFP1 ag | -0.2% | 0.5% | -0.3% | -0.3% | 0.3% | nt

13) C[N+]1(C)[C@@H]2CC[C@H]1CC(OC(=O)[C@@H](CO)c1ccccc1)C2 (stereo not given in full)
14) [Cl][Pt+2][Cl].[NH-]C1CCCCC1[NH-] (stereo not given)
15) CCCCCCCCC(=O)NCc1ccc(O)c(OC)c1
16) CN(C)C1C(=O)C(C(N)=O)=C(O)C2(O)C(=O)C3=C(O)c4c(O)cccc4C(C)(O)C3CC12 (stereo not given)
17) CCc1ccc(-n2c(O)c(C(C)=O)c(=O)[nH]c2=O)cc1 (tested in a mixture with another compound)
18) Oc1ccc(C(=C(Cl)Cl)c2ccc(O)cc2)cc1
19) CC(CCc1ccccc1)NC(C)C(O)c1ccc(O)cc1 (stereo not given)
20) CC12CCC(=O)C=C1CCC1C2CCC2(C)C(O)CCC12 (stereo not given)
21) CC(=O)c1ccc(-c2ccccc2)cc1

Compound | 13 | 14 | 15 | 16 | 17 | 18 | 19 | 20 | 21
D2 antag | 5 | -1 | -8 | 6 | -3 | 10 | 64* | -1 | nt
D2 potentiator | 6 | -8 | 1 | 22 | 0 | -2 | -25 | -8 | nt
RXFP1 antagonist | 6 | nt | -30 | nt | 3 | nt | 8 | 17 | -1
D2 ag | 1.4 | -0.5 | 0.1 | 0.3 | 2.1 | 0.5 | 71* | 0.1 | nt
RXFP1 ag | 0.5% | -0.2% | -1.3% | 21% | 6.1% | -0.3% | 1.6% | 2.4% | 1.0%

At a glance, 9 of the compounds above.
12) C[C@]12CCC3C(CC[C@H]4C[C@@H](O)CC[C@]34C)[C@H]1C=CC2=O (stereo not given in full)
13) C[N+]1(C)[C@@H]2CC[C@H]1CC(OC(=O)[C@@H](CO)c1ccccc1)C2 (stereo not given in full)
14) [Cl][Pt+2][Cl].[NH-]C1CCCCC1[NH-] (stereo not given)
15) CCCCCCCCC(=O)NCc1ccc(O)c(OC)c1
16) CN(C)C1C(=O)C(C(N)=O)=C(O)C2(O)C(=O)C3=C(O)c4c(O)cccc4C(C)(O)C3CC12 (stereo not given)
17) CCc1ccc(-n2c(O)c(C(C)=O)c(=O)[nH]c2=O)cc1 (tested in a mixture with another compound)
18) Oc1ccc(C(=C(Cl)Cl)c2ccc(O)cc2)cc1
19) CC(CCc1ccccc1)NC(C)C(O)c1ccc(O)cc1 (stereo not given)

Compound | 12 | 13 | 14 | 15 | 16 | 17 | 18 | 19
D2 antag | nt | 5 | -1 | -8 | 6 | -3 | 10 | 64*
D2 potentiator | nt | 6 | -8 | 1 | 22 | 0 | -2 | -25
RXFP1 antagonist | -21 | 6 | nt | -30 | nt | 3 | nt | 8
D2 ag | nt | 1.4 | -0.5 | 0.1 | 0.3 | 2.1 | 0.5 | 71*
RXFP1 ag | nt | 0.5% | -0.2% | -1.3% | 21% | 6.1% | -0.3% | 1.6%

20) CC12CCC(=O)C=C1CCC1C2CCC2(C)C(O)CCC12 (stereo not given)

Compound | 20
D2 antag | -1
D2 potentiator | -8
RXFP1 antagonist | 17
D2 ag | 0.1
RXFP1 ag | 2.4%

High-throughput results (PubChem BioAssay)
